From PubChem BioAssay
KCNQ2 inh: KCNQ2 potassium channel inhibitors, primary screen, cell-based, CHO-K1, FluxOR thallium flux, B-score (AID 2156); B-score at 10 µM; actives 1.1% (n = 310,000); 20 min; active compounds read low; only compounds with negative scores are shown here; some inactives read as strong as hits;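 active means fluorescence ratio B-score at most minus 3 library SDs, with starting brightness B-score within 2 library SDs, cut at about -5.5 in these data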
Target sequence (O88943 whole entry, looked up): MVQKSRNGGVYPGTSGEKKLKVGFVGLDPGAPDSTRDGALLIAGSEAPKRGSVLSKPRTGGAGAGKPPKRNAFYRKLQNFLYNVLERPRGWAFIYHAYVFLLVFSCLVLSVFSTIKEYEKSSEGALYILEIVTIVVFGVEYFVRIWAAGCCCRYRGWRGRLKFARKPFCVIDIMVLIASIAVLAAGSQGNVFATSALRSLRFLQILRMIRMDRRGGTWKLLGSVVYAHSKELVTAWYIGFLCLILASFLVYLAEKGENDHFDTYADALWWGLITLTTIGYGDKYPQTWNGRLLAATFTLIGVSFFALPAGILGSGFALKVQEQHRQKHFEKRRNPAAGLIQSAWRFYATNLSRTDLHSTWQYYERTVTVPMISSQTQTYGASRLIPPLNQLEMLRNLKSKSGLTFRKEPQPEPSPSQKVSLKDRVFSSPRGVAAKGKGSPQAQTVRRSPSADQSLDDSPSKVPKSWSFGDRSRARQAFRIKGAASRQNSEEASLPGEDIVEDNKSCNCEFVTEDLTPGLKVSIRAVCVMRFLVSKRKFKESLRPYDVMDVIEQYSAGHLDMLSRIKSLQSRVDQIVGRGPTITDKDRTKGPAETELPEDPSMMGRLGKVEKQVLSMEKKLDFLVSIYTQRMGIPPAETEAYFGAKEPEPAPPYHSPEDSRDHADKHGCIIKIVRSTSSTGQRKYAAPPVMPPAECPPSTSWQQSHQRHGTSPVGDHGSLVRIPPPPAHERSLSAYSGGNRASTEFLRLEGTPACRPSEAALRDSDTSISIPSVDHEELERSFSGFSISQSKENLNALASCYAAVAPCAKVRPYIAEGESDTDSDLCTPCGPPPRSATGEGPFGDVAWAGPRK
KCNQ2 inh baseline: second read-out of KCNQ2 inh, no call of its own (marks repeat the call); B-score; measured here: initial fluorescence intensity artifact check;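 brightness before thallium and not channel activity; 0 = typical well and far values either way flag optical interference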
Numbers without * were called inactive; i = inactive. This is a subset; count on the stated rates, not on these rows.

Screens in order: KCNQ2 inh | KCNQ2 inh baseline
[1] Oc1ccc(-c2nc(-c3ccc(O)c(O)c3)cs2)cc1
    -5.56* | -1.06*
[2] O=C(Cc1cccs1)Nc1ccccc1
    i | 2.53
[3] O=C(NCc1ccco1)C1(S(=O)(=O)c2ccccc2)CC=CC1
    i | 1.26
[4] Cc1ccc2nc(-c3ccc(F)cc3)nc(SCC(=O)NCC3CCCO3)c2c1 (configuration not stated)
    i | 0.6
[5] CCS(=O)(=O)N1CCN(C(=O)CC(C)C)CC1
    i | 1.14
[6] O=S(=O)(NCc1cccnc1)c1ccc2c(c1)OCCO2
    i | -0.58
[7] COc1cccc(OC)c1C(=O)Nc1ccc(CN2CCCCC2)cc1
    i | 2.08
[8] CCNc1c(NS(=O)(=O)c2ccc(Cl)s2)c(=O)oc2ccccc12
    i | 1.9
[9] COc1ccccc1/C=C/C=N/n1c(C)nnc1C
    i | 0.13
[10] NC1=CC(=O)c2cccc3cccc1c23
    i | 6.12
[11] CC(=O)c1ccc(C(=O)Nc2sc3c(c2C(N)=O)CCN(Cc2ccccc2)C3)cc1
    i | 3.7
[12] Oc1ccc2ccccc2c1/C=N/Nc1ccccc1
    i | 0.32
[13] Cc1cccc(OCC(=O)N2CCc3ccccc3C2)c1
    i | 0.48
[14] Clc1ccccc1CSc1nnc(/C=C/c2ccccc2)o1
    i | 0.58
[15] Cc1ccc(-c2cc(=O)c3ccc(F)cc3[nH]2)cc1
    i | 1.17
[16] Cc1ccc(-n2nc(C)cc2N)c(C)c1
    i | 1.11
[17] Cc1nc([N+](=O)[O-])c(Br)n1CC(=O)c1ccccc1
    i | 0.17
[18] CC1(C)CC(=O)C2=C(C1)Nc1ccccc1NC2c1nc2ccccc2[nH]1 (configuration not stated)
    i | 1.24
[19] O=C1N/C(=C\c2ccsc2)C(=O)N1Cc1ccc(F)cc1
    i | -0.55
[20] Cc1ccc(C2=NN(C(=O)c3ccccc3F)C(c3ccccc3F)C2)cc1 (configuration not stated)
    i | 2.38
[21] COc1ccccc1CNC(=O)CC(C)c1ccccc1 (configuration not stated)
    i | -0.55
[22] N#C/C(=C\c1ccccc1)C(=O)Nc1nncs1
    i | -0.25
[23] O=C(c1ccc(CS(=O)(=O)c2ccc(Br)cc2)o1)N1CCN(c2ccc(F)cc2)CC1
    i | 0.84
[24] Cc1ccc(S(=O)(=O)N2CN(Cc3ccco3)c3nc4ccccc4nc32)cc1C
    i | -0.49
[25] COCCn1c(=O)[nH]c2cc(C(=O)N3CCN(c4ccccc4OC)CC3)ccc2c1=O
    i | 0.08
[26] CCOC(=O)CC(NC(=O)c1cc2cccc(OC)c2oc1=O)c1ccc(OC)cc1 (configuration not stated)
    i | 0.86
[27] C=CCn1c(SCC(=O)N2CCOCC2)nc2scc(-c3ccco3)c2c1=O
    i | 0.96
[28] Cc1ccc(-c2nn3c(C)nnc3c3ccccc23)cc1S(=O)(=O)NC(C)c1ccccc1 (configuration not stated)
    i | -0.45
[29] CCC(C)NC(=O)CN(C1CCCCC1)S(=O)(=O)c1ccc(F)cc1 (configuration not stated)
    i | -0.44
[30] O=c1c(Cl)c(Cl)cnn1-c1ccccc1
    i | 0.15
[31] COc1ccc(Oc2c(Cl)cnn(-c3ccc(C)cc3)c2=O)cc1
    i | -1.58
[32] O=C(Cn1cc(C(F)(F)F)cc(Cl)c1=O)Nc1cc(Cl)cc(Cl)c1
    i | 1.56
[33] O=C1C2C3c4ccccc4C(c4ccccc43)C2C(=O)N1Cc1ccccn1 (configuration not stated)
    i | -1.05
[34] COc1cccc(C(=O)NCCS(=O)(=O)N(C)Cc2ccccc2)c1
    i | 0.23
[35] O=C(CSc1nnc(-c2ccccc2Cl)o1)N1CCCCC1
    i | -0.51
[36] CCN(c1ccc(OC)cc1)S(=O)(=O)N1CCCC(C(=O)NCc2ccccc2Br)C1 (configuration not stated)
    -10.1* | 0.08*
[37] O=C(c1ccc(Cl)cc1)N1CCC(c2nc(-c3cccs3)no2)CC1
    i | 3.03
[38] Nc1ccc(C(=O)N/N=C\c2cc(N=Nc3cccc4ccccc34)ccc2O)cc1
    i | 0.78
[39] O=C(O)CCSc1nnc(COc2ccc(Cl)cc2)n1-c1ccccc1
    i | 0.81
[40] O=C(O)c1ccc(-n2nnnc2Oc2cccc3cccnc23)cc1
    i | 0.09

Values in list order from the list:
Nos. 31–38 in KCNQ2 inh baseline: -1.58, 1.56, -1.05, 0.23, -0.51, 0.08*, 3.03, 0.78
Nos. 31–38 in KCNQ2 inh: i, i, i, i, i, -10.1*, i, i

Next compounds:
Screens in order: KCNQ2 inh | KCNQ2 inh baseline
[41] CCOP(=O)(OCC)C(Nc1cccc([N+](=O)[O-])c1)c1ccc(N(C)C)cc1 (configuration not stated)
    i | 0.46
[42] COC(=O)C1=C(C)N(c2ccc(Cl)cc2)/C(=C/c2ccc(O)cc2)C1=O
    i | -1.31
[43] CCCN1CCN(C(=O)c2oc3ccccc3c2NC(=O)C2CC2)CC1
    i | 1.11
[44] CN(CC(=O)Nc1ccccc1Cl)C(=O)c1cccc(-n2cccc2)c1
    i | 0.69
[45] CC1CCCCN1Cc1ccc(N(C)C)cc1 (configuration not stated)
    i | 1.09
[46] CCOc1ccccc1CNC(=O)Cn1ccc2cc(S(=O)(=O)N3CCCC3)ccc21
    i | -1.29
[47] CSc1cccc(NC(=S)NN(C)C)c1
    i | 2.02
[48] O=S(=O)(Nc1cccc2ccccc12)N1CCCC1
    i | -0.76
[49] COc1ccc(N2CCN(Cc3csc(C)c3-c3ccc(C)cc3)CC2)cc1
    i | 0.52
[50] CCN(CC)C(=O)COc1coc(CN2CCN(c3cccc(Cl)c3)CC2)cc1=O
    i | 1.62
[51] O=C(NC1CCCC1)C(c1ccncc1)N(C(=O)Cn1nnc(-c2ccccc2F)n1)c1cccc(F)c1 (configuration not stated)
    i | -1.12
[52] Cc1noc(N)c1C(=O)Nc1ccc(F)c(Cl)c1
    i | -0.64
[53] COc1ccc(NC(=O)COC(=O)Cc2ccc(Br)cc2)cc1
    i | -0.13
[54] COc1ccc(CCN=c2c([N+](=O)[O-])nn(-c3cccc(C)c3)n2O)cc1OC
    i | -0.76
[55] CCOC(=O)c1nn(-c2cccc(C)c2)c2nnc(Cc3ccc(C)cc3)c(=O)n12
    i | -1.08
[56] COC(=O)c1ccc(NC(=O)CSc2nc(N)c(NC(=O)c3ccc(Br)o3)c(=O)[nH]2)cc1
    i | -0.01
[57] C#CCOCCOCCOCCNc1nc(N2CCN(C(=O)[C@H](CCCCN)n3cc(CCCC)nn3)CC2)nc(N2CCN(C(=O)[C@H](Cc3ccc(O)cc3)n3cc(CCO)nn3)CC2)n1
    i | 0.28
[58] COC(=O)C(Cc1c[nH]c2ccccc12)NC(=O)c1cc(-c2ccc(OC)c(OC)c2)oc1C (configuration not stated)
    i | 1.54
[59] CN(C)N=Nc1ccc(S(=O)(=O)NC(Cc2ccccc2)C(=O)O)cc1 (configuration not stated)
    i | 2.34
[60] O=C(OC1CCN(c2ncc(C(F)(F)F)cc2Cl)CC1)c1ccc(Cl)cc1
    i | -0.48
[61] COc1ccc(NC(=S)N(CCCN2CCCC2)Cc2ccco2)cc1
    i | -0.17
[62] CCOc1ccccc1N1CCN(C(=O)c2cc(C)oc2C)CC1
    i | 0.01
[63] O=S(=O)(c1ccccc1)N1CCC2(CC1)OCCO2
    i | 0.22
[64] CCCCC(C)n1[nH]c(=O)cc1N (configuration not stated)
    i | 2.91
[65] N=C1C(c2nc3ccccc3[nH]2)=C(O)CN1NC(=O)c1c[nH]c2ccccc12
    i | 0.61
[66] Cc1ccccc1NC(=O)C(NC1CCCCC1)C(C)C (configuration not stated)
    i | 1.15
[67] O=C(Cc1cccs1)NCc1ccc(Cl)cc1Cl
    i | 4.13
[68] Cc1cc(NC(=O)c2cccc([N+](=O)[O-])c2)n(-c2ccccc2)n1
    i | -0.1
[69] CC(Sc1nncs1)C(=O)NCc1ccc2c(c1)OCO2 (configuration not stated)
    i | -0.59
[70] Cc1ccccc1Nc1ncc(C#N)c(N)n1
    i | -0.84

Six compounds out of the list above, ordered by their value in KCNQ2 inh baseline, low to high.
Screens in order: KCNQ2 inh | KCNQ2 inh baseline
[70] Cc1ccccc1Nc1ncc(C#N)c(N)n1
    i | -0.84
[68] Cc1cc(NC(=O)c2cccc([N+](=O)[O-])c2)n(-c2ccccc2)n1
    i | -0.1
[62] CCOc1ccccc1N1CCN(C(=O)c2cc(C)oc2C)CC1
    i | 0.01
[63] O=S(=O)(c1ccccc1)N1CCC2(CC1)OCCO2
    i | 0.22
[66] Cc1ccccc1NC(=O)C(NC1CCCCC1)C(C)C (configuration not stated)
    i | 1.15
[64] CCCCC(C)n1[nH]c(=O)cc1N (configuration not stated)
    i | 2.91

(next part)
Screens in order: KCNQ2 inh | KCNQ2 inh baseline
[71] O=C(Nc1cccc(OC(=O)c2ccc(Br)o2)c1)c1ccccc1
    i | 3.04
[72] Cc1ccccc1OC1=NS(=O)(=O)c2ccccc21
    i | 1.24
[73] Cc1cc(C)[n+]2n1C(=O)C(c1ccccc1)=C2[O-]
    i | 0.43
[74] Cc1ccc(C)n1-c1ccc(-c2ccn[nH]2)cc1
    i | 0.46
[75] CC(C)(CO)CNC(=O)CC1C(=O)NCCN1CC(c1ccccc1)c1ccccc1 (configuration not stated)
    i | 1.47
[76] CCc1ccc(N(C(=O)c2snc(C(N)=O)c2N)C(C(=O)NC2CCCC2)c2ccco2)cc1 (configuration not stated)
    i | 2.17
[77] CCOc1ccc(NC(=O)Cn2nnc(C(=O)NCc3ccc4c(c3)OCO4)c2N)cc1
    i | 0.02
[78] O=C(CNCc1cccs1)Nc1ccc(S(=O)(=O)N2CCCCC2)cc1
    i | 1.3
[79] O=C(CN(Cc1ccccc1)C(=O)CNS(=O)(=O)c1ccc(F)cc1)NCC1CCCO1 (configuration not stated)
    i | -0.28
[80] Cc1cccc(C(=O)NC(=S)Nc2cccc3nc(C)ccc23)c1
    i | 0.14
[81] O=c1c(Cc2ccc(F)cc2)c(O)ccn1Cc1ccc(F)cc1
    i | -0.03
[82] COc1ccc(-c2csc(NC(=O)CSc3ncn[nH]3)n2)cc1OC
    i | 2.18
[83] COc1cccc(NC(=O)Cn2nc(Cc3cccnc3)c3ccccc3c2=O)c1
    i | -0.32
[84] Cc1ccc(S(=O)(=O)NCCC(=O)NCc2ccco2)cc1
    i | -0.03
[85] O=S(=O)(Nc1ccc2ccccc2n1)c1ccc2c(c1)CCO2
    i | 0.09
[86] CC1=NN(c2ccccc2)C(=O)/C1=C/c1cccc(C)c1
    i | -0.05
[87] CSc1ccccc1NC(=O)COC(=O)Cc1cccs1
    i | 0.72
[88] COc1ccccc1CN1C[C@@H]2C[C@@H](c3ccc(C)cc3)N3CCC[C@@]23C1=O
    i | -0.58
[89] COC(=O)[C@H](CC(C)C)NC(=O)Nc1ccc(F)cc1
    i | -1.25
[90] COc1ccc(CCN(Cc2cc3cc(C)ccc3[nH]c2=O)C(=O)N2CCCC2)cc1OC
    i | 1.61
[91] NC(=O)/C(=C\c1ccccc1)NC(=O)c1ccc(NC(=O)c2ccccc2)cc1
    i | -0.54
[92] Cc1cccc(NC(=O)c2cccc(C(F)(F)F)c2)c1
    i | 0.02
[93] CC(C)c1nnc(NC(=O)C2CC(=O)N(CCc3ccc(F)cc3)C2)s1 (configuration not stated)
    i | 0.26
[94] Cc1ccc(C)c(NC(=S)NCc2cccn2C)c1
    i | -0.19
[95] CC(C)(C)N1C(=O)[C@H]2[C@@H](c3ccc(Br)cc3)N3C(=O)N(c4ccccc4)C(=O)[C@@]3(C)[C@H]2C1=O
    i | -1.55
[96] O=C(NC1CCCc2ccccc21)c1cccc(Br)c1 (configuration not stated)
    i | 0.87
[97] COc1ccc(CCn2c(N3CCN(C)CC3)nc3c2c(=O)[nH]c(=O)n3C)cc1
    i | 0.05
[98] C#CCSc1nnc(-c2ccccc2)c(=O)[nH]1
    i | -0.01
[99] COc1cc(C(=O)Oc2ccc3c(c2)OCC3=O)cc(OC)c1OC
    i | 0.31
[100] CCCCc1cc(=O)oc2cc(C)cc(OCC(=O)N3CCC(C(=O)O)CC3)c12
    i | 0.04
[101] FC(F)(F)c1cccc(NC(=S)N2CCN(c3ccccc3)CC2)c1
    i | 0.25
[102] CCOC(=O)C1=C(c2ccccc2)NC(=O)NC1c1cc(OC)c(OC)cc1OC (configuration not stated)
    i | 0.68
[103] O=C(c1ccc(NS(=O)(=O)c2ccccc2)cc1)N1CCOCC1
    i | 1.05
[104] O=C(CCc1ccccc1)N1N=C(c2ccncc2)CC1(O)C(F)(F)F (configuration not stated)
    i | -0.3
[105] O=C(COc1ccc(Cl)cc1)NCc1nnc(SCC(=O)NC2CCCC2)o1
    i | -1.24
[106] Cc1cccc(C2NC(c3cccc(C)c3)C([N+](=O)[O-])C(C)(C)C2[N+](=O)[O-])c1 (configuration not stated)
    i | 0.06
[107] CCC(=O)Nc1ccc(C(=O)N2CCN(C(=O)c3ccco3)CC2)cc1
    i | -0.32
[108] O=CNC(=O)c1ccccc1C(=O)O
    i | 2.19
[109] Cc1ccc(S(=O)(=O)N2CCC(C(=O)Nc3ccccc3N3CCCCC3)CC2)cc1C
    i | -2.3
[110] COc1ccc(Cl)cc1NC(=O)CC(=O)Nc1cc(Cl)ccc1OC
    i | -1.21
[111] O=C(COC(=O)C1CCCCC1)Nc1ccc([N+](=O)[O-])cc1
    i | -0.6
[112] COc1ccc(N2CC(C(=O)N[C@H](C(=O)NC(C)c3ccccc3)C(C)C)CC2=O)cc1 (some centres not stated)
    i | -0.56
[113] CCO[C@@H]1OC(C(=O)NCc2ccccc2)=C[C@H](c2ccccc2)[C@H]1CCCO
    i | -0.12
[114] Cc1cccc(NC(=O)Cn2c(=O)oc3ccccc32)c1
    i | 0.12
[115] O=C(Cn1c(=O)oc2ccccc21)N1CCN(c2ccccc2)CC1
    i | 0.42
[116] CC(=O)Nc1ccc(S(=O)(=O)NNC(=O)COc2ccc(C(C)(C)C)cc2)cc1
    i | 1.27
[117] O=C(Nc1nc(-c2ccc3c(c2)OCO3)cs1)C1COc2ccccc2O1 (configuration not stated)
    i | 0.06
